Compound activity deposited in PubChem BioAssay by several laboratories.
INS promoter inh – inhibitors of insulin promoter-driven GFP, primary screen, imaging, TRM-6 cells (human fetal islet line), eGFP reporter, cell count; reporter expression induced with tamoxifen; inhibition, % at 2 µM; 0.9% of 130,000 active; AID 1273, 2008;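 active means inhibition above the mean plus 3 SD, with well images judged a real hit on visual review, cut at about 60% in these data, passing the limit was not always enough; inconclusive means inhibition over the cutoff but images rejected on review; inactive means inhibition not above the cutoff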
RGS16-Gao HTS – modulators of RGS16 binding to Galphao, primary screen, biochemical, human proteins, multiplexed bead flow cytometry. 0.38% of 220,000 active. Regulator of G-protein signaling 16 (Homo sapiens) + Guanine nucleotide-binding protein …. bead-based flow cytometry RGS16-Galphao binding, fluorescence; actives lie on both sides. binding response (% of control), % at 10 µM;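 active means below 25% or above 175%, edge rows of some plates excepted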;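 further: Galphao activated by GDP with aluminum fluoride before binding; 100% = wells without compound and 0% = beads without RGS; some results beyond the cut were filed as inactive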
HSV augment – enhancers of HSV replication in host cells, fold increase, host cell viability; HSV replication augmentation in cells; 0.005% of 220,000 active; maximum fold increase;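 active means peak rise of 1.5-fold or more in the series; inconclusive means self-fluorescent or not available for retest; tested in PC3 cells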;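 further: first round at 10 µM; read as green reporter fluorescence; hits show the peak of a series up to 25 µM; 1 = signal of infected wells without compound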
GALR2 agonist – GALR2 receptor agonists, primary screen, cell-based; AID 803, 2007; Galanin receptor type 2 (Homo sapiens), O43603; activation, %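 (tested at 5 µM)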; 0.48% of 140,000 active; GALR2-expressing cells, agonist activation read-out;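 active means above mean plus 3 SD of all compounds, about 5% in these data, not always enough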;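 further: 0% = vehicle buffer wells and 100% = reference agonist at full effect; tested in CHO reporter cells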
PKD1 inh – inhibitors of human PKD1 kinase, biochemical, fluorescence polarization | PKD1 kinase fluorescence polarization assay | 0.056% of 200,000 active | inhibition, %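 (about 10 µM by stock and volumes)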;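 active means inhibition of 50% or more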;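 further: controls were vehicle for no effect and a reference inhibitor for full effect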
Target sequence (Q15139 whole entry, looked up): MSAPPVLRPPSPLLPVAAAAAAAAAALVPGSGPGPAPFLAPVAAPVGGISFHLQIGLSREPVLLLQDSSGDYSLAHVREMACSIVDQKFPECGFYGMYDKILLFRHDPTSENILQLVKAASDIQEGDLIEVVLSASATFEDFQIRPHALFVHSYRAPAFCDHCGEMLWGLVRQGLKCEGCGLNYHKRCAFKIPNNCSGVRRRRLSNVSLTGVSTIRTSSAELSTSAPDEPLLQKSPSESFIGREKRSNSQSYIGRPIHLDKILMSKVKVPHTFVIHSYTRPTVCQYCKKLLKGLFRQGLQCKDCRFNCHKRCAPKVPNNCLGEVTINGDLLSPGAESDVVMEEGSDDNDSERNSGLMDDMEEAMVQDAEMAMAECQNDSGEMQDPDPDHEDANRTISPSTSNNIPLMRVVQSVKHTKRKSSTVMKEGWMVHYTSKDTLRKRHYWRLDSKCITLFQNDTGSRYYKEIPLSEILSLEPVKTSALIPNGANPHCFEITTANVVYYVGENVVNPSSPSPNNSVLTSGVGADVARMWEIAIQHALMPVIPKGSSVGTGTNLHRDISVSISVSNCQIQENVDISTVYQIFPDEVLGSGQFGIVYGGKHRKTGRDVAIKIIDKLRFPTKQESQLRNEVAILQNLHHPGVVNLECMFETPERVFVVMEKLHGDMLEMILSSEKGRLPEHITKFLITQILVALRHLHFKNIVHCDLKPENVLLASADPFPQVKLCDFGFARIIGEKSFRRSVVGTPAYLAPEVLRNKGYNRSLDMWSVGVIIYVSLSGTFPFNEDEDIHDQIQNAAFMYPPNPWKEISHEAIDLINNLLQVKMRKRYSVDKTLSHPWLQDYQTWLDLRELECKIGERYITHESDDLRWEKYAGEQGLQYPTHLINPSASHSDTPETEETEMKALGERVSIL
INS promoter inh cell count – also measured in INS promoter inh; calls as there; normalized cell count, %; measured here: cell count, toxicity; reference of the scale not given here;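 cells exposed to compound for 48 h; stained nuclei by imaging scaled within each plate; lower means fewer cells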
HSV augment primary fold – recorded beside HSV augment, whose call it bears; fold increase; compound at 10 µM; measured here: primary screen fold increase 10 uM; tested in PC3 cells;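 GFP signal in the first replicate; 1 = infected wells without compound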
* marks the source's active call; other numbers are inactive results; i = inactive; ? = inconclusive; . = no result given; [ ] = dose if it differs, or a comment.

Key to letters – A = INS promoter inh; B = INS promoter inh cell count; C = RGS16-Gao HTS; D = HSV augment; E = HSV augment primary fold; F = GALR2 agonist; G = PKD1 inh
[1] O=C(CS(=O)(=O)c1ccccc1)Nc1ccc(N2CCOCC2)cc1
  A = 62; B = 49; C = 100; D = i; E = 0.93; F = .; G = 11
[2] Nc1cc(N)nc(SCc2nnnn2-c2ccc(Cl)cc2)n1
  A = -18; B = 84; C = 105; D = i; E = 1; F = -1.9; G = 0
[3] O=C(COC(=O)C1Cc2ccccc2CN1C(=O)c1ccccc1)Nc1ccc(SC(F)F)cc1 (stereo unspecified)
  A = .; B = .; C = 97; D = i; E = 1.1; F = -0.4; G = -5
[4] O=C(CSc1nnc(-c2ccncc2)n1C1CCCCC1)Nc1cccc(O)c1
  A = 7; B = 124; C = 98; D = i; E = 0.81; F = -0.7; G = -2
[5] C[N+]1(C2CCC3CCCC2C3O)CCCC1 (stereo unspecified)
  A = 1; B = 79; C = 98; D = i; E = 0.94; F = -1.0; G = -3
[6] COc1ccc(/C=C2/S/C(=N/N=C3\CC4CCC3(C)C4(C)C)NC2=O)cc1 (stereo unspecified)
  A = .; B = .; C = 105; D = .; E = .; F = -1.8; G = -1
[7] Cc1cc2ncn(/N=C/c3ccc4c(c3)OCO4)c2cc1C
  A = 13; B = 136; C = 101; D = i; E = 0.9; F = .; G = 0
[8] CC(=O)Nc1ccc(Br)c2ccccc12
  A = -12; B = 111; C = 99; D = i; E = 1.1; F = .; G = -8
[9] CCc1ccc(OCC(=O)NC(=S)Nc2ccc(S(=O)(=O)NC3CCCCC3)cc2)cc1
  A = 14; B = 104; C = 95; D = i; E = 1; F = -0.9; G = 4
[10] CC(=O)Oc1ccc(-c2cccc(C(=O)O)c2)cc1
  A = 37; B = 52; C = 111; D = i; E = 1.2; F = -1.5; G = -1
[11] CN(C)/C=C(/C(=O)c1ccc(Cl)cc1)n1cncn1
  A = .; B = .; C = 100; D = i; E = 1; F = .; G = -1
[12] CN(Cc1cccs1)C(=O)Cn1cnc2ccccc2c1=O
  A = .; B = .; C = 105; D = i; E = 0.8; F = .; G = 2
[13] CCc1cccc(C)c1NC(=O)COC(=O)Cc1ccsc1
  A = 47; B = 91; C = 98; D = i; E = 0.94; F = -1.4; G = 2
[14] O=C(COC(=O)c1ccc2[nH]c3c(c2c1)CCCC3)Nc1ccc(Cl)cc1Cl
  A = -60; B = 76; C = 182*[activator]; D = i; E = 0.84; F = -1.1; G = -3
[15] COC(=O)Cc1cc(=O)[nH]c(/N=C(\N)Nc2ccccc2)n1
  A = .; B = .; C = 96; D = i; E = 1; F = -2.8; G = 0

4 structures out of the list, arranged by molar mass, ascending.
Key to letters – A = INS promoter inh; B = INS promoter inh cell count; C = RGS16-Gao HTS; D = HSV augment; E = HSV augment primary fold; F = GALR2 agonist; G = PKD1 inh
[10] CC(=O)Oc1ccc(-c2cccc(C(=O)O)c2)cc1
  A = 37; B = 52; C = 111; D = i; E = 1.2; F = -1.5; G = -1
[7] Cc1cc2ncn(/N=C/c3ccc4c(c3)OCO4)c2cc1C
  A = 13; B = 136; C = 101; D = i; E = 0.9; F = .; G = 0
[13] CCc1cccc(C)c1NC(=O)COC(=O)Cc1ccsc1
  A = 47; B = 91; C = 98; D = i; E = 0.94; F = -1.4; G = 2
[2] Nc1cc(N)nc(SCc2nnnn2-c2ccc(Cl)cc2)n1
  A = -18; B = 84; C = 105; D = i; E = 1; F = -1.9; G = 0

Continued.
Key to letters – A = INS promoter inh; B = INS promoter inh cell count; C = RGS16-Gao HTS; D = HSV augment; E = HSV augment primary fold; F = GALR2 agonist; G = PKD1 inh
[16] CC(C)CCNC(=O)COc1ccc2c3c(c(=O)oc2c1)CCC3
  A = .; B = .; C = 100; D = i; E = 0.83; F = -0.1; G = -2
[17] CCCCC(=O)Nc1cccc(-c2nnc(-c3ccccc3)o2)c1
  A = -6; B = 115; C = 90; D = i; E = 0.94; F = -3.1; G = -3
[18] CCN1CCc2nc(NC(=O)c3ccc(S(=O)(=O)N(C)C)cc3)sc2C1
  A = .; B = .; C = 109; D = i; E = 1; F = .; G = -2
[19] CCC(Sc1ccc2nnc(-c3cccnc3)n2n1)C(=O)O (stereo unspecified)
  A = 50; B = 118; C = 103; D = i; E = 0.9; F = -0.4; G = -6
[20] CN(C)C(CNc1ncnc2sccc12)c1ccccc1 (stereo unspecified)
  A = -25; B = 52; C = 90; D = i; E = 1.1; F = .; G = -2
[21] O=CN1CCN(C(=O)COc2ccc(Cl)cc2Br)CC1
  A = -61; B = 97; C = 81; D = i; E = 0.97; F = -2.1; G = 9
[22] Oc1sc(C=Nc2ccccc2)c2ccccc12
  A = -58; B = 126; C = 106; D = ?; E = .; F = -2.2; G = 9
[23] CC1COc2ccccc2N1C(=O)c1cccnc1Cl (stereo unspecified)
  A = -12; B = 99; C = 100; D = i; E = 1.1; F = .; G = -4
[24] CC1=CC(C)(C)Nc2ccc(OC(=O)CN3C(=O)c4ccccc4C3=O)cc21
  A = .; B = .; C = 101; D = ?; E = .; F = 0.5; G = -1
[25] FC(F)(F)c1ccccc1NC(=S)NN=C1CCCCCC1
  A = .; B = .; C = 116; D = i; E = 0.75; F = .; G = -5
[26] ClCCN1C2=NCCCN2c2ccccc21
  A = -53; B = 86; C = 62; D = i; E = 0.91; F = .; G = 1
[27] Cc1cccc(OCC(=O)Nc2ccccc2C(F)(F)F)c1
  A = -23; B = 70; C = 111; D = i; E = 1; F = 0.3; G = 2
[28] O=C(COc1ccc(Br)cc1)Nc1ccc2c(c1)C(=O)NC2=O
  A = 50; B = 152; C = 102; D = i; E = 1; F = .; G = 6
[29] CCOC(=O)CSc1nnc2c(n1)C1(C)CCC2C1(C)C (stereo unspecified)
  A = .; B = .; C = 97; D = i; E = 0.95; F = -3.8; G = -10
[30] Cc1ccccc1-c1nc(CN2CCC(C(=O)N3CCC(C(N)=O)CC3)CC2)c(C)o1
  A = .; B = .; C = 102; D = i; E = 0.85; F = -0.1; G = -20
[31] CCN(CC)c1ccc(/C=N/NC(=S)NCc2ccccc2)c(O)c1
  A = 44; B = 123; C = 94; D = i; E = 0.86; F = 3.9; G = 5
[32] CN(C)c1ccccc1C(=O)c1ccccc1N(C)C
  A = .; B = .; C = 104; D = i; E = 0.71; F = -1.7; G = 2
[33] Cc1cc2ccccc2n2c(SCC(=O)Nc3ccc(S(=O)(=O)N4CCCCC4)cc3)nnc12
  A = -31; B = 87; C = 98; D = .; E = .; F = 0.9; G = -5
[34] CSc1nc2nc(-c3cccc(C(F)(F)F)c3)ccn2n1
  A = 33; B = 134; C = 105; D = i; E = 0.64; F = .; G = 1
[35] Cc1ccc(Cl)c(NC(=O)CCl)c1Cl
  A = .; B = .; C = 102; D = i; E = 0.84; F = .; G = -1
[36] CCOC(=O)C1(Cc2cccc(F)c2)CCN(Cc2c(C)nn(CC)c2C)CC1
  A = .; B = .; C = 102; D = i; E = 0.97; F = .; G = .
[37] COC(=O)Cc1ccc(OCC(=O)Nc2ccc(OC(F)(F)F)cc2)cc1
  A = 14; B = 78; C = 101; D = i; E = 1; F = -0.9; G = 1
[38] Brc1ccc(C2=CC(c3ccco3)n3nnnc3N2)cc1 (stereo unspecified)
  A = .; B = .; C = 99; D = i; E = 0.85; F = .; G = .
[39] CC(=O)c1cccc(NC(=O)c2ccncc2)c1
  A = .; B = .; C = 108; D = i; E = 0.96; F = -3.3; G = -6
[40] Cc1cc(/C=N/NC(N)=S)c(C)n1-c1ccc(Br)cc1
  A = .; B = .; C = 97; D = i; E = 1.1; F = .; G = 8
[41] CCOC(=O)c1cc(C)[nH]c(=S)c1C#N
  A = 12; B = 87; C = 91; D = i; E = 1.1; F = -4.6; G = 2
[42] COc1cc(C(=O)Nc2ccc3c(c2)C(=O)c2ccccc2C3=O)cc(OC)c1OC
  A = .; B = .; C = 94; D = i; E = 0.98; F = -0.6; G = 1
[43] Cc1ccc(C2=C/C(=C/c3cccs3)C(=O)O2)cc1
  A = -13; B = 75; C = 108; D = i; E = 0.94; F = -0.2; G = -4
[44] Cn1cnnc1SCC(=O)Nc1cc(S(=O)(=O)N2CCCCCC2)ccc1Cl
  A = 5; B = 112; C = 72; D = i; E = 1.1; F = -1.5; G = -8
[45] COc1ccc(NC(=O)NCCCN2CCN(c3ccccc3F)CC2)cc1
  A = .; B = .; C = 8.9*; D = i; E = 0.94; F = .; G = .
[46] CC(=O)Oc1ccc(C(=O)O)cc1OC(C)=O
  A = .; B = .; C = 100; D = i; E = 0.9; F = 0.1; G = -6
[47] CCOc1ccc(C(=O)OCC(=O)NC(C)C)cc1
  A = 67; B = 61; C = 106; D = i; E = 0.9; F = .; G = -3
[48] Cc1nc(-c2ccccc2Cl)sc1C(=O)/C=C/N(C)C
  A = .; B = .; C = 104; D = i; E = 1; F = .; G = -6
[49] Clc1ccc(C2CC(c3ccccc3)Nc3ncnn32)cc1 (stereo unspecified)
  A = .; B = .; C = 104; D = i; E = 1.2; F = -0.3; G = 6
[50] O=[N+]([O-])c1cccc(-c2n[nH]c(=S)n2Cc2ccccc2)c1
  A = -38; B = 80; C = 96; D = i; E = 0.89; F = -0.1; G = -16
[51] COc1cc(CNCc2ccccc2)cc(Cl)c1OC
  A = .; B = .; C = 104; D = i; E = 0.99; F = .; G = -3
[52] O=C(c1ccc(COc2ccc3c(c2)CCC3)o1)N1CCN(c2ccccc2)CC1
  A = 33; B = 41; C = .; D = i; E = 0.89; F = -1.1; G = -3
[53] Cc1noc(C)c1C(=O)OCC(=O)N(C)C1CCS(=O)(=O)C1 (stereo unspecified)
  A = -43; B = 104; C = 98; D = i; E = 0.95; F = .; G = -1
[54] NCCc1c(-c2ccccc2)n(-c2ccccc2)c2ccccc12
  A = .; B = .; C = 105; D = i; E = 0.63; F = .; G = -4
[55] CN(CC(=O)NCc1ccccn1)S(=O)(=O)c1ccc2ccccc2c1
  A = 0; B = 89; C = 74; D = i; E = 0.97; F = .; G = -5
[56] CC(C)Nc1cc(C(C)(C)C)nc2c(-c3ccccc3)cnn12
  A = .; B = .; C = 101; D = i; E = 1.1; F = .; G = .
[57] O=C(C1=NN[C@@H]2C(=O)N(c3ccccc3C(F)(F)F)C(=O)[C@H]12)C(c1ccccc1)c1ccccc1
  A = .; B = .; C = 104; D = i; E = 1.1; F = -0.8; G = 4
[58] NS(=O)(=O)c1ccc(NC(=O)COC(=O)c2cn(-c3ccccc3)nc2-c2ccccc2)cc1
  A = .; B = .; C = 102; D = i; E = 0.86; F = .; G = .
[59] Cc1ccc(-c2cc(C(=O)Nc3cc(C)on3)no2)cc1
  A = -29; B = 113; C = 99; D = i; E = 0.61; F = .; G = 1
[60] CCCn1nnc(NC(=S)NC(=O)/C=C/c2ccco2)n1
  A = .; B = .; C = 96; D = i; E = 1.4; F = .; G = .
[61] COc1ccc(/C=C/C(=O)N2CCN(c3ccccc3)CC2)cc1S(=O)(=O)N1CCOCC1
  A = .; B = .; C = 96; D = i; E = 0.86; F = .; G = -9
[62] COc1ccccc1NC(=S)N(Cc1ccccc1)Cc1cccnc1
  A = 13; B = 80; C = 99; D = i; E = 1; F = .; G = -8
[63] Cc1onc(-c2c(Cl)cccc2Cl)c1C(=O)N1CCSCC1
  A = .; B = .; C = 98; D = i; E = 1; F = .; G = .
[64] Cc1ccc(S(=O)(=O)N2CC(=O)Nc3ccccc32)cc1
  A = 4; B = 127; C = 105; D = i; E = 0.82; F = -2.0; G = -6
[65] CC(=O)NN1C(=O)c2ccc(Oc3ccc4c(c3)C(=O)N(NC(C)=O)C4=O)cc2C1=O
  A = -5; B = 98; C = 102; D = i; E = 1.1; F = .; G = -4
[66] CC1CN(C(=O)N[C@@H](Cc2ccccc2)C(=O)O)CC(C)O1 (stereo partly specified)
  A = .; B = .; C = 117; D = i; E = 1; F = -0.6; G = 0
[67] NNc1ccc(S(=O)(=O)N2CCCCC2)cn1
  A = .; B = .; C = 97; D = i; E = 0.9; F = .; G = .
[68] O/N=C/c1cccn1-c1ccc(O)cc1
  A = 38; B = 123; C = 102; D = i; E = 0.88; F = -1.8; G = -16
[69] C(=N/Nc1cc(N2CCOCC2)nc(N2CCOCC2)n1)/c1ccccc1
  A = -167; B = 42; C = 106; D = .; E = .; F = -0.5; G = -10
[70] CCOc1ccc(OCCSc2nnnn2C2CCCCC2)cc1
  A = .; B = .; C = 434; D = .; E = .; F = -1.7; G = -10
